# AmpC inh no det: AmpC beta-lactamase inhibition, detergent-free assay | AmpC nitrocefin hydrolysis, absorbance 480 nm, no detergent; potencies from a single point are estimates | Potency, µM (titrated, usually from 28.7 µM), without a hit: at the top dose activity change, negative = inhibition | 71,000 tested, 1.8% active | AID 585; active = falling curve, for most hits resting on a single point; inconclusive = weak or doubtful change; inactive = flat or rising curve; also: % of control where 0% means no effect; about half of the hits show no inhibition at the top dose; a quarter of the inactives give rising signals
# Target sequence (P00811 whole entry, looked up): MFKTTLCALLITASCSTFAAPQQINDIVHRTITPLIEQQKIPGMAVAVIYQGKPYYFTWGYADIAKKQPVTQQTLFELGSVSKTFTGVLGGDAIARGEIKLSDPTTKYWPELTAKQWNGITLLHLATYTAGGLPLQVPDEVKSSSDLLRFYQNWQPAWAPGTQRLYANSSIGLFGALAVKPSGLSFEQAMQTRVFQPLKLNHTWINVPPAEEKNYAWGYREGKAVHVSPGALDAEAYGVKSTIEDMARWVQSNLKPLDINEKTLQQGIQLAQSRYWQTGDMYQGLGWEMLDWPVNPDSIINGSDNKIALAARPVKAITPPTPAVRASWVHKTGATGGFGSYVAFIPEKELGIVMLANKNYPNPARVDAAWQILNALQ
#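 Enzyme, pH 7.0 phosphate. Compound titrations were pre-incubated with AmpC for 15 min at room temperature before nitrocefin (stock 800 uM) addition; product formation was recorded at 480 nm every 20 s for 4 min.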
# * marks the source's active call; other numbers are inactive results; u = inconclusive; & = joins results of further samples; [ ] = remark or other dose. Potency is read from the fitted curve at half-maximal effect. An excerpt; the hit share may differ from the screen's.
Compound	AmpC inh no det
O=C1Nc2ccc(I)cc2/C1=C/c1cc(Br)c(O)c(Br)c1	u
CC(C)(C)C(=O)C(Oc1cccc2nonc12)n1cncn1 (centres undefined)	12%
COc1ccc(OCC(=O)N2CCN(C(=O)Cc3ccccc3)CC2)cc1	29%
Cc1nc(SCc2nnc(-c3ccc(Cl)cc3)o2)c2c3c(sc2n1)CCC3	-7%
O=C1c2ccccc2S(=O)(=O)N1CCOc1ccccc1	-6%
CC1CCN(S(=O)(=O)c2cccc(C(=O)NCc3cccs3)c2)CC1	-15%
Cc1cc(C)cc(NC(=O)N2CCC(NC(=O)c3ccc(F)cc3)CC2)c1	27%
CC1OC(Nc2ccc(OC(F)(F)F)cc2)C(O)C(O)C1O (centres undefined)	-10%

# More records follow.
Compound	AmpC inh no det
CN=C1N[C@H](c2ccccc2)N(c2ccccc2)S1	10%
CN1CCN(S(=O)(=O)c2ccc(Sc3nnc(-c4cccs4)n3-c3ccccc3)nc2)CC1	149%
Cn1c(SCC(=O)Nc2nc3c(s2)CCCC3)nnc1-c1ccccc1	53%
CCOC(=O)c1c(NC(=O)CSc2n[nH]c(N)n2)sc(CC)c1C	9%
CCCn1c(N2CCN(CC(=O)Nc3ccc4c(c3)OCCO4)CC2)nc2ccccc21	108%
Cc1ccc(C(=O)NCC2CCCO2)cc1N1CCCC1=O (centres undefined)	-3%
C=CCCC	4%
O=C(/C=N/O)NCC1CCNCC1	-4%

# Further structures follow.
Compound	AmpC inh no det
C/C(=C\C(=O)c1ccncc1)Nc1ccccc1O	0%
Cc1sc2nc3ccc(N4CCCCC4)nn3c(=O)c2c1C	37%
CN(C)S(=O)(=O)c1ccc(N2CCN(S(=O)(=O)c3ccc(F)cc3)CC2)c(Cl)c1	53%
COc1ccc(S(=O)(=O)N2CCSC2c2ccc(N)cc2)cc1 (centres undefined)	0%
COc1ccc2nc(SCC(=O)Nc3ccccc3C#N)[nH]c2c1	-17%
CCOC(=O)C1=C(C)Nc2nnnn2C1c1ccc(OC)c(Br)c1 (centres undefined)	4µM*[single pt active]
CC(C)CCOc1ccc(C2(C)NC(=O)N(CN3CCOCC3)C2=O)cc1 (centres undefined)	30%
Cc1cc(S(=O)(=O)NC2CCCCC2)ccc1OCC(=O)NCc1ccccn1	52%

# Other results follow:
Compound	AmpC inh no det
Cc1nc2ccccc2c2oc(C(=O)N3CCc4ccccc4C3)cc12	151%
OCC(CBr)(CBr)CBr	-14%
O=C(O)CSC1CC(=O)N(c2ccc(Cl)c(Cl)c2)C1=O (centres undefined)	-11%
C/C(N)=C(/C#N)C(=O)COC(=O)CSc1ccccc1	0%
O=C(Nc1ccccc1-c1nc2ccccc2o1)c1ccc2c(c1)OCCO2	-21%
O=C(C1CCCO1)N1CCN(c2ncccn2)CC1 (centres undefined)	-1%
COCCn1c(SCC(=O)Nc2ccc(S(=O)(=O)N3CCOCC3)cc2)nc2ccccc21	118%
Cc1ccc(-n2nnnc2SCC(=O)NC(=O)Nc2ccc3c(c2)OCCO3)cc1	-2%

# The list goes on.
Compound	AmpC inh no det
N#CCCn1c(=O)c(-c2ccccc2)nc2cnc(Oc3ccccc3)nc21	10%
Cc1nc2n(n1)CC(O)CS2 (centres undefined)	-11%
O=C(Cn1c(=O)oc2cc(S(=O)(=O)N3CCCC3)ccc21)N1CCN(c2ccccn2)CC1	26%
CN(C)c1ncc2nc(-c3cc(F)cc(F)c3)c(=O)n(Cc3cccs3)c2n1	3%
COc1cc(-c2c(C#N)c(N)nc(SCc3ccncc3)c2C#N)cc(OC)c1OC	71%
Cc1noc(C(=O)Nc2sc3c(c2C#N)CCC3)c1Cl	-6%
O=C(Nc1cccc(F)c1)N1CC2(CCN(C(=O)c3cc(C(F)(F)F)cc(C(F)(F)F)c3)CC2)C1	75%
O=C1CN(C(=O)c2ccc(Br)o2)C(c2ccc(F)cc2)c2cc(F)ccc2N1 (centres undefined)	-8%

# Next compounds follow.
Compound	AmpC inh no det
O=C(Nc1ccc(Oc2ccc(Cl)cc2)cc1)c1ncn[nH]1	-8%
CC1CCCCN1CCNC(=O)CN1C(=O)COc2ccccc21 (centres undefined)	-13%
O=C(Nc1ccc(N2CCOCC2)cc1)C1(S(=O)(=O)c2ccccc2)CC1	16%
CCCSCCCNC(=O)Cn1cc2c(n1)CCC(C)C2 (centres undefined)	57%
COc1ccc(OC)c(NC(=O)c2ccc(NS(=O)(=O)c3c(C)noc3C)cc2)c1	1%
CN(C)c1ncc2nc(-c3cc(F)cc(F)c3)c(=O)n(Cc3ccc(F)cc3)c2n1	10%
O=C(c1ccncc1)N1CCN(C(=O)c2cccs2)CC1	5%
COC(=O)c1ccc(C2C(C(C)=O)=C(C)Nc3ncnn32)cc1 (centres undefined)	7%

# Following part:
Compound	AmpC inh no det
CCCn1c(=N)n(CC(=O)c2ccco2)c2ccccc21	1%
CCOCCCn1c(=S)[nH]c2cc(C(=O)NCCN(CC)CC)ccc2c1=O	7%
COc1cc(C)c(Cl)cc1S(=O)(=O)NCc1ccncc1	20%
CSc1nc(C)c(Oc2ccccc2)c(=O)n1C	-6%
CC(C)Cc1cc(C(=O)Nc2cc(Cl)ccc2Cl)no1	4µM*[single pt active]
O=c1c2cc(Cl)ccc2oc2nc3n(c(=O)c12)CCCS3	4%
Fc1ccc(CNc2ccc(CNc3ncn[nH]3)cc2)cc1	-2%
COc1ccc(OC)c(NC(=O)C2CCCN(S(=O)(=O)c3cccc4cccnc34)C2)c1 (centres undefined)	77%

# Continuation.
Compound	AmpC inh no det
COC(=O)c1cn(NC(=O)CC2CCCCC2)c(=O)c2ccccc12	7%
Cc1cc(C)n2nc(NCc3cccc(Br)c3)nc2n1	39%
C=C(C)CSc1nncn1/N=C/c1ccc(OC)cc1	55%
Cc1cc(C)nc(SCC(=O)Nc2ccc(N3CCOCC3)cc2)n1	-4%
CCCC(=O)NCCc1nc2ccccc2n1C	-11%
Cc1nc2ccc(S(=O)(=O)NC(C(=O)N3CCCCCC3)C(C)C)cc2s1 (centres undefined)	4µM*[single pt active]
CCOC(=O)c1ccc(NC(=O)CC2C(=O)N(c3cccc(OC)c3)C(=O)N2CCOC)cc1 (centres undefined)	87%
O=C1CN(C(=O)CN2CCCCC2)C(c2ccccc2)c2cc(Br)ccc2N1 (centres undefined)	-8%

# Carrying on.
Compound	AmpC inh no det
CCOC(=O)c1c(/N=C/N(C)C)sc(C(=O)OC)c1C	5%
O=c1c2cnn(-c3ccccc3)c2ncn1Cc1cccc(Cl)c1	1%
COCc1cc(=O)n2[nH]c(SC)nc2n1	-10%
CCOc1cc(-c2nc(-c3ccccc3OC)no2)cc(OCC)c1OCC	104%
CCN(CC)CCNC(=O)c1nn(-c2ccc(C)cc2)c(=O)c2c1c1ccccc1n2C	41%
CN(C)CCCN1c2ccccc2CCc2ccc(Cl)cc21	88%
COC(=O)CSc1cc(C(=O)c2nccn2C)c2ccccc2n1	36%
COCCn1c(SCC#N)nnc1-c1ccccc1	-12%

# New compounds follow.
Compound	AmpC inh no det
O=C(O)c1ccc(NS(=O)(=O)c2ccc(Cl)c(Cl)c2)cc1O	-21%
CCOC(=O)c1sc(NC(=O)CSc2nncs2)c(C(=O)OCC)c1C	31%
Cc1nn(-c2ccccc2)c2c1P(=O)(O)/C(=C1\N(C)c3ccccc3C1(C)C)C=N2	145%
CC1=CC(C)(C)N2C(=O)C3(C(C#N)=C(N)Oc4cc(O)ccc43)c3cccc1c32 (centres undefined)	50%
NC(=O)N[C@H]1NC(=O)NC1=O	-6%[12.8 µM]
O=C(Nc1cccc(C(=O)N2CCCC2)c1)c1ccccc1	-1%
Cc1ccc2cc(CN(Cc3ccc4c(c3)OCO4)Cc3nnnn3Cc3ccco3)c(=O)[nH]c2c1C	38%
O=C(NCC(=O)N(Cc1ccc(F)cc1)C(C(=O)NC1CCCC1)c1ccco1)c1ccco1 (centres undefined)	29%

# Compounds above that contain a COOH group:
Compound	AmpC inh no det
O=C(O)CSC1CC(=O)N(c2ccc(Cl)c(Cl)c2)C1=O (centres undefined)	-11%
O=C(O)c1ccc(NS(=O)(=O)c2ccc(Cl)c(Cl)c2)cc1O	-21%

# (listing goes on)
Compound	AmpC inh no det
Cc1cccc(C)c1NC(=O)CSc1nnc(-c2ccoc2C)n1CCc1ccccc1	67%
COc1ccc(-c2cn3cccnc3n2)cc1NC(=O)C1CCCC1	6%
CCOC(=O)C1=C(C)NC2=C(C(=O)c3ccccc32)C1c1cccnc1 (centres undefined)	-9%
COc1ccccc1OCC(=O)Nc1oc(-c2ccccc2)c(-c2ccccc2)c1C#N	-17%
Cc1ccn(CCSCC(=O)O)n1	-2%
Cc1cc(N2CCCN(C)CC2)nc2cc(Cl)ccc12	37%
CCOC(=O)C1CCN(C(=O)COc2cc(C)c(Br)c(C)c2)CC1	112%
Cc1ccc(CNC(=O)c2cn(C3CCCCC3)c(=O)c3c2c2ccccc2n3C)o1	43%

# The list goes on.
Compound	AmpC inh no det
O=C(CSc1nccc(=O)[nH]1)N1c2ccccc2CCc2ccccc21	-1%
c1coc(CNc2ncnc3nc[nH]c23)c1	3%
O=C1C(Cl)=C(NCC2CCCO2)C(=O)N1c1ccccc1 (centres undefined)	8%
O=C1CCCCCC1C1(O)C(=O)Nc2ccc(Br)cc21 (centres undefined)	4%
Cc1onc(-c2ccccc2)c1C(=O)Nc1ccc2c(c1)OCO2	-6%
COc1ccc(C2C(C(C)=O)=C(O)C(=O)N2CCN(C)C)cc1OC (centres undefined)	-3%
CCn1c(=O)cc(OCC(=O)NCCCN2CC(C)CC(C)C2)c2ccccc21 (centres undefined)	6%
CC(C)OC(=O)C(C)(C)Oc1ccc(C(=O)c2ccc(Cl)cc2)cc1	18%[12.8 µM]

# (more compounds)
Compound	AmpC inh no det
Cc1cc(C)nc(SCc2ccc(C(=O)O)o2)n1	-2%
CCOc1ccc(NC(=O)N(C2CCCCC2)C2CCN(C(C)=O)CC2)cc1	-5%
C/C(Cl)=C/CN1C(=O)C2C3C=CC(C3)C2C1=O (centres undefined)	-10%
COCCCNC(=O)c1cccc(C(=O)NCCCOC)c1	4%
COc1ccc(C(c2nnnn2CC2CCCO2)N2CCN(c3cccc(C)c3C)CC2)cc1 (centres undefined)	110%
COCCNc1cc(-c2ccccc2C(F)(F)F)ncn1	6%
CCCn1c(=O)c2[nH]c(C3CCCC3)nc2n(CCC)c1=O	11%&-1%
Cc1nn(-c2ccccn2)c2c1C(c1ccsc1)C1=C(CCCC1=O)N2 (centres undefined)	79%

# Going on with the list:
Compound	AmpC inh no det
CCOC(=O)c1[nH]c(C)c(C(=O)OCCN2C(=O)c3ccccc3C2=O)c1C	12%
CN/C=C1\C(=O)C(C)(C)Oc2ccc3ccc(=O)oc3c21	9%
COCC(=O)N1CCC2(CC1)CN(c1ccncc1)C2	-2%
N#Cc1ccc(-c2nnnn2-c2ccc3c(c2)OCO3)cc1	-7%
CC(=O)C1=C(O)C(=O)N(Cc2ccco2)C1c1ccccc1 (centres undefined)	1%
Cc1nnc(SCC(=O)NCCOc2ccc(Cl)cc2)n1-c1ccccc1	110%
Cc1ccc2c(C)nc(NC3=NCN(CCc4ccccc4)CN3)nc2c1	11%
COC(=O)C1CCCN1S(=O)(=O)c1ccc2ccccc2c1 (centres undefined)	10%

# Additional compounds follow.
Compound	AmpC inh no det
COc1ccc(C(CC(=O)N2CCC3(CC2)OCCO3)NS(=O)(=O)c2ccc(F)cc2)cc1 (centres undefined)	36%
COC(=O)COc1ccc(S(=O)(=O)NCc2ccco2)cc1Cl	9%
CCc1ccc(CC)c(S(=O)(=O)Nc2ccc(O)c(C(=O)O)c2)c1	-22%
COc1nnc(-c2ccc(N3CCOCC3)c(NC(=O)c3ccco3)c2)c2ccccc12	154%
O=C(/C=C\c1ccc(O)c(O)c1)OCCc1ccccc1	-22%
COC(=O)c1cccc(S(=O)(=O)N2CCC(n3nnc4cc(F)ccc43)CC2)c1	28%
CCCCn1c(CN2CCN(C(=O)c3ccco3)CC2)nc2c1c(=O)n(C)c(=O)n2C	-5%
O=c1c2[nH]c3ccc(F)cc3c2ncn1CCCn1ccnc1	-10%

# 5 records drawn at random from those above:
Compound	AmpC inh no det
COC(=O)c1cccc(S(=O)(=O)N2CCC(n3nnc4cc(F)ccc43)CC2)c1	28%
O=c1c2[nH]c3ccc(F)cc3c2ncn1CCCn1ccnc1	-10%
COc1ccc(C(CC(=O)N2CCC3(CC2)OCCO3)NS(=O)(=O)c2ccc(F)cc2)cc1 (centres undefined)	36%
CCc1ccc(CC)c(S(=O)(=O)Nc2ccc(O)c(C(=O)O)c2)c1	-22%
COc1nnc(-c2ccc(N3CCOCC3)c(NC(=O)c3ccco3)c2)c2ccccc12	154%

# The results go on.
Compound	AmpC inh no det
COc1cccc(NC(=O)c2cccnc2)c1	-4%
O=C(NC(Cc1ccc(F)cc1)C(=O)O)c1ccccc1 (centres undefined)	-7%
Cc1cc(=O)n2nc(N3CCCC(C(=O)NCCc4ccccc4)C3)sc2n1 (centres undefined)	12%
Cc1ccc2oc(=O)c3cnn(CC(=O)N4CCCCC4C)c3c2c1 (centres undefined)	21%
CCOC(=O)C1CCCN(C(=O)c2cc(Nc3ccc(OC)c(OC)c3)nc3ccccc23)C1 (centres undefined)	119%
O=c1c2ccccc2nnn1Cc1ccccn1	-4%
O=C(CCC(=O)N1CCCC1)Nc1nnc(C(F)(F)F)s1	-6%
CCOC(=O)N1CCN(C(=O)CSc2nc3c(cnn3-c3ccc(C)cc3)c(=O)[nH]2)CC1	10%

# (more compounds)
Compound	AmpC inh no det
CC(=O)N1CCN(CCN=CC2=C(O)CC(c3ccc(Cl)cc3)CC2=O)CC1 (centres undefined)	79%
CC(=O)Nc1ccccc1C	-4%
CSc1nc(-c2ccco2)nn1C(=O)c1cccs1	-5%
CN(C)c1ccc(CN2CCCC(O)C2)cc1 (centres undefined)	-4%
OCCNCC(O)Cn1ccc2ccccc21 (centres undefined)	13%
